gsp antag: antagonists of gsp mutant (McCune-Albright syndrome); 340,000 compounds, 0.4% hits; gsp-mutant cells, cAMP HTRF, 30 min; control for the full effect not named in the record; Potency, µM (top dose mostly 76.9 µM), for the others: at the highest dose activity change, negative = inhibition, most hits filed as inhibitors; active = falling curve of any shape with a large fitted effect; inconclusive = falling curve, mostly with a smaller effect; inactive = flat or rising curve; cell line not stated here;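 also: intracellular cAMP measured with PDE inhibitor Ro 20-1724 present during compound exposure; potency is read from the fitted curve at half-maximal effect; % is scaled to controls: 0 for no effect and ±100 for the full control effect; nearly all actives have a fitted effect of over 65% in size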
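G418-selected cells were plated in DMEM/10% FBS for 16-24 h at 37C, then treated with compounds plus the PDE inhibitor […] (300 uM solution added) for 30 min at 37C. Intracellular cAMP was measured by HTRF after 30 min lysis at room temperature.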
TRPML1 ag: agonists of human TRPML1 channel; Q9GZU1; TRPML1-expressing cells, Ca2+ dye fluorescence, FDSS; host cell line not named in the record; reference of the full effect not given here; activation, % (concentration not given with the values); 410,000 compounds, 0.12% hits; AID 624414; in the data active = activation above about 50%; inconclusive = about 30% to 50%; inactive = below about 30%; also: 0% is about no effect; the text of the record puts the active cut at 80%
Target sequence (Q9GZU1 whole entry, looked up): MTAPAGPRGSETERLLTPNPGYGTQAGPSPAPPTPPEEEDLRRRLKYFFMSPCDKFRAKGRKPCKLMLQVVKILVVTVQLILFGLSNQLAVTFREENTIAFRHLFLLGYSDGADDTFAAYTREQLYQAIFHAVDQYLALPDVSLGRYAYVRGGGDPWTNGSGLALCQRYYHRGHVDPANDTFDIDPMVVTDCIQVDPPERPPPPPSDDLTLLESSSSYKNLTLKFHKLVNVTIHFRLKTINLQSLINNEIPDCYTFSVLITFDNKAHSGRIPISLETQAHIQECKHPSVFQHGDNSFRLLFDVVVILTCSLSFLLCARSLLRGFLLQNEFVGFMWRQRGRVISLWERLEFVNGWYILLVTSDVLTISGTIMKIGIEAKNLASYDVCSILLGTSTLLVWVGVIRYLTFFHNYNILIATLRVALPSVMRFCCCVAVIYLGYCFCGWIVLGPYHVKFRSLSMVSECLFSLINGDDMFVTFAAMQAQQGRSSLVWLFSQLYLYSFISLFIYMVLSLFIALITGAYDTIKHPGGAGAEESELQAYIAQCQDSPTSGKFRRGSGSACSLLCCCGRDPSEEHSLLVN
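In this qHTS format, compounds were pin-transferred onto Ca8-dye-loaded TRPML1-DL cells induced with Tet overnight, and intracellular Ca2+ fluorescence was recorded kinetically for 110 s after a 10 s baseline. A subsequent 4uM final 54-4 (EC80) addition followed by a second 110 s read served as the antagonist phase.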
TRPML1 inh: human mucolipin-1 channel inhibition; TRPML1-inducible cells, Ca2+ dye fluorescence, FDSS; stronger effect = lower value; inhibition of EC80 agonist-evoked calcium signal; activity change, negative = inhibition, % (test concentration not listed); 390,000 compounds, 0.02% hits; in the data active means activity change below about -50%; inconclusive means about -30% to -50%; inactive means above about -30%;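 also: stimulus is agonist 54-4 at its EC80 concentration; % is scaled to controls: 0 for no effect and ±100 for the full control effect; compound concentration not given in the record; the text of the record puts the active cut at -80%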
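Tet-induced TRPML1-DL cells loaded with Ca8 no-wash calcium dye were read kinetically on FDSS. Compound addition was followed by EC80 agonist 54-4 (4 uM final); inhibition was read over 110 s.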
gsp agonist: activates gsp, the McCune-Albright syndrome mutation; 340,000 compounds, 0.13% hits; Potency, µM (doses to about 76.9 µM), for the others: top-dose activation (cAMP increase), usual class: activators; gsp mutant cells, cAMP HTRF, 30 min; control for the full effect not named in the record; active = well fitted activation curve with a large enough effect; inconclusive = small, poorly fitted or top-dose-only effect, or another doubt; inactive = no such curve, though single readings can be large or run the other way; cell line not stated here;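 also: phosphodiesterase inhibitor Ro 20-1724 added with compounds to block cAMP breakdown; potency is read from the fitted curve at half-maximal effect; nearly all actives have a fitted effect of over 60% in size; about a fifth of the inactives were tested at one dose only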
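Cells stably selected in G418 were plated at 2000/well, grown 16-24 hr, then given compounds in DMSO with the PDE inhibitor […] (300 uM solution added) for 30 min at 37C; cAMP was read by HTRF.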
ClpP mod: qHTS Assay for Activators of ClpP; ATP-dependent Clp protease proteolytic subunit (Bacillus subtilis (strain 168)), P80244; purified B. subtilis ClpP, FRET peptide cleavage, 20 min; Potency, µM (doses to about 57.5 µM), for inactives: top-dose activity change, negative = active; 340,000 compounds, 1.9% hits; AID 651965, 2013; active = well fitted falling curve with a large enough effect; inconclusive = small, poorly fitted or top-dose-only effect; inactive = no such curve, though single readings can be large or run the other way; also: potency is read from the fitted curve at half-maximal effect; the source files actives as falling curves though it sought activators and does not explain the sign; nearly all actives have a fitted effect of over 65% in size; many hits overshoot -100%
Target sequence (P80244 whole entry, looked up): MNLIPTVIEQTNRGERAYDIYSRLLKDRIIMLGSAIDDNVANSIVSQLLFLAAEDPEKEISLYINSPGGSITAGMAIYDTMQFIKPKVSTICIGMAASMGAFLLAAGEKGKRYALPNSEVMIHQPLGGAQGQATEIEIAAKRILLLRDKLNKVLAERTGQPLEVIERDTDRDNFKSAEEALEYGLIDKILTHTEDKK
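FRET quenching reversal measured ClpP activation: 10 microg/mL B. subtilis ClpP at pH 8 with the FRET-FV decapeptide, read at 430 nm after 320 nm excitation. The 20-min minus 0-min signal was scaled between DMSO/no-enzyme wells and ADEP (5.8 microM final).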
Menin-MLL FL inh: menin-MLL binding inhibition, fluorescein peptide; Fluorescence polarization, fluorescein-MLL peptide displacement from menin; FP activity change, % at 61.4 µM; 290,000 tested, under 10 active; AID 1766; inconclusive = falling polarisation curve, or a change in total fluorescence; inactive = total fluorescence flat and polarisation flat or rising; no compound was filed as active; the % refers to the polarisation; negative = inhibition;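 also: % of control where 0% means no effect; inhibitors lower the polarisation; unlabelled MLL peptide was the positive control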
The depositor's hits bear a star; ? = inconclusive; nt = not tested or not shown; [ ] = dose if it differs, or a comment.

SMILES	gsp antag	TRPML1 ag	TRPML1 inh	gsp agonist	ClpP mod	Menin-MLL FL inh
CCOc1ccc(NC(=O)C(=O)N/N=C/c2ccccc2F)cc1	17%	-0.2	-4	17%[15.4 µM]	nt	5.6
Cc1ccc2nc(NC(=O)CNS(=O)(=O)c3ccc(Br)s3)sc2c1	-25%	0.7	-10	-19%	-1.1%	0.1
O=C(COC(=O)c1cc(-c2cccs2)nc2ccccc12)c1ccc(Br)cc1	nt	-0.2	16	nt	-6.3%	nt
CCCCNC(=O)c1cc(-c2ccc(Cl)c(Cl)c2)on1	nt	-0.2	-28	nt	-1.3%	nt
Cc1ccc(C2C(C(=O)c3ccco3)=C(O)C(=O)N2c2nnc(C)s2)cc1 (stereo not drawn)	6%	1.6	-4	?	-1.1%	-17
Cc1ccc(NC(=S)N(CCN(C)C)C(C)c2ccco2)cc1C (stereo not drawn)	0%	-0.8	-6	-59%[inhibitor]	-3.1%	1.1
CCOC(=O)C1CN(C(C)(C)C)C(=O)C1=O (stereo not drawn)	2%	-0.4	9	1%	-13%	-3.0
CC(=O)N1CCN(C(=O)c2ccc(-c3cccc(C(F)(F)F)c3)o2)CC1	-3%	0.9	4	-59%	-0.6%	nt
CN(c1ccccc1C(=O)NCc1ccco1)S(C)(=O)=O	8%	0.0	-5	-1%	-4.2%	5.5
CCc1ccccc1OCCCCCNCCO	11%	-0.4	8	3%	-0.7%	3.4
CCOc1ccc(N(C)C(=O)CS(=O)(=O)c2cccc3nsnc23)cc1	nt	2.2	-18	nt	-0.2%	nt
Cc1[nH]c2ccccc2c1CCCO	0%	0.3	7	4%	nt	-13
CCN(c1ccc(F)cc1)S(=O)(=O)c1cccc2nsnc12	-10%	2.7	4	-4%	-1.0%	-2.4
COc1ccc(-c2nc(Cn3c(SCc4ccc(F)cc4)nc4cccnc43)c(C)o2)cc1	nt	0.0	16	nt	-25%	nt
CCOc1ccc(-n2c(C)c(C(C)=O)c3cc(OCC(N)=O)ccc32)cc1	8%	-1.2	-17	-7%[15.4 µM]	0.8%	3.2
CC1CCC(NC(=O)COc2ccc(C(=O)c3ccccc3)cc2)CC1 (stereo not drawn)	9%	2.0	1	-18%[15.4 µM]	-3.1%	6.8
Cc1ccc(N(CC(=O)Nc2ccc(Br)c(C)c2)S(=O)(=O)c2c(C)[nH]c(=O)[nH]c2=O)cc1	-4%	-0.8	11	8%	-0.7%	nt
Cc1cccc2nc(CNC(=O)C3CCC(=O)N(Cc4ccccc4F)C3)cn12 (stereo not drawn)	8%	0.1	21	?	?	nt
CC(=O)Nc1ccc(NC(=O)C2CC(=O)Nc3nc4ccccc4n32)cc1 (stereo not drawn)	12%	0.5	-13	-8%[15.4 µM]	nt	8.9
Cc1c(CC(=O)NCCC(=O)O)c(=O)oc2cc3oc4c(c3cc12)CCCC4	5%	1.5	15	-6%	-14%	-10

6 successive entries out of the list so far:
SMILES	gsp antag	TRPML1 ag	TRPML1 inh	gsp agonist	ClpP mod	Menin-MLL FL inh
CCOc1ccc(-n2c(C)c(C(C)=O)c3cc(OCC(N)=O)ccc32)cc1	8%	-1.2	-17	-7%[15.4 µM]	0.8%	3.2
CC1CCC(NC(=O)COc2ccc(C(=O)c3ccccc3)cc2)CC1 (stereo not drawn)	9%	2.0	1	-18%[15.4 µM]	-3.1%	6.8
Cc1ccc(N(CC(=O)Nc2ccc(Br)c(C)c2)S(=O)(=O)c2c(C)[nH]c(=O)[nH]c2=O)cc1	-4%	-0.8	11	8%	-0.7%	nt
Cc1cccc2nc(CNC(=O)C3CCC(=O)N(Cc4ccccc4F)C3)cn12 (stereo not drawn)	8%	0.1	21	?	?	nt
CC(=O)Nc1ccc(NC(=O)C2CC(=O)Nc3nc4ccccc4n32)cc1 (stereo not drawn)	12%	0.5	-13	-8%[15.4 µM]	nt	8.9
Cc1c(CC(=O)NCCC(=O)O)c(=O)oc2cc3oc4c(c3cc12)CCCC4	5%	1.5	15	-6%	-14%	-10

The list continues.
SMILES	gsp antag	TRPML1 ag	TRPML1 inh	gsp agonist	ClpP mod	Menin-MLL FL inh
COc1ccccc1CNC(=O)COC(=O)Cc1ccsc1	5%	-0.3	-13	8%[15.4 µM]	nt	4.1
COc1cccc(CN(C)C(=O)Cc2c[nH]c3ccccc23)c1	-7%	1.2	9	30%	-1.1%	nt
COc1cccc(C(=O)Nc2nnc(S(=O)(=O)N(C)Cc3ccc(F)cc3)s2)c1	?	-1.0	9	10%	-6.5%	0.6
O=C(c1cnc(N2CCOCC2)c2ccccc12)N1CCN(c2ccccc2F)CC1	nt	-0.2	13	nt	-14%	nt
COCCNC(=O)C(c1ccc(Cl)cc1)N(CCOC)C(=O)CCC(=O)Nc1ccccn1 (stereo not drawn)	4%	-0.8	-2	-16%[15.4 µM]	nt	nt
COc1ccc(OCCOC(=O)c2cc(S(=O)(=O)N3CCOCC3)c(Cl)cc2Cl)cc1	-16%	-0.4	-26	7%	-7.6%	nt
O=C(CN1CCN(Cc2ccccc2)CC1)Nc1cccc(Cl)c1Cl	nt	-0.3	4	14%	-2.4%	nt
S=c1[nH]nc(C23CC4CC(CC(C4)C2)C3)n1Cc1ccco1	-18%	3.2	5	25%	-0.4%	0.9
COc1cnc(-c2ccccn2)nc1Sc1c(Cl)cccc1Cl	6%	1.3	55	-4%	-1.4%	6.8
CC(SCc1ccccc1)C(=O)NC1CCCC1 (stereo not drawn)	2%	-0.1	0	-7%	2.6%	-1.1
CCOc1ccc(OCC)c(NC(=O)c2cnc(SC)nc2-c2ccccc2)c1	nt	3.6	0	nt	-7.8%	nt
Cc1ccn2cc(CCNC(=O)COc3ccccc3)nc2c1	-7%	nt	nt	?	3.8%	3.8
COc1ccc(NC(=O)N2CCCC(CCC(=O)N(C)CCc3ccccn3)C2)cc1 (stereo not drawn)	-1%	0.7	-1	-3%	nt	-3.8
COc1ccccc1NC(=O)c1[nH]c(C)c(C(C)=O)c1C	-2%	0.3	-12	0%	-4.1%	3.8
N=C1C(=O)OCC1c1ccccc1NC(=O)c1ccc(F)cc1 (stereo not drawn)	-8%	0.0	1	15%	-1.4%	nt
N/C(Cc1ccc(Cl)cc1)=N\OC(=O)CCc1ccccc1	nt	-0.2	6	-73%[inhibitor]	1.3%	nt
Cc1cc(OCC(C)C)ccc1/C(O)=C1/C(=O)C(=O)N(Cc2cccnc2)C1c1ccncc1 (stereo not drawn)	14%	-0.1	-13	5.6µM*	-0.4%	-0.3
COc1cc(C)ccc1OCCCCNCc1ccccc1	-4%	nt	nt	0%	-4.1%	0.4
Cc1ccc(NC(=S)N(CCN(C)C)Cc2cc3cc(C)cc(C)c3[nH]c2=O)cc1	15%	1.6	2	-32%[inhibitor]	-5.9%	0.3
Cc1nn2c(N3CCN(c4ccccn4)CC3)cc(C(C)C)nc2c1-c1ccccc1	-5%	1.6	16	0%	28µM*	5.6
CC1Oc2ccccc2N(CC(=O)c2cccc(Cl)c2)C1=O (stereo not drawn)	-10%	2.3	-2	-12%	0.6%	0.3
O=C(Nc1ccc(F)cc1F)NC1CCN(S(=O)(=O)c2ccc(F)cc2)CC1	-2%	1.9	7	2%	nt	0.2
CCc1cccc(C)c1NS(=O)(=O)c1cc2[nH]c(=O)c(=O)[nH]c2cc1C	nt	4.9	31	nt	5.0%	nt
O=c1sc2ccccc2c(N2CCOCC2)c1[N+](=O)[O-]	-1%	0.8	-17	-15%[15.4 µM]	0.2%	5.5
Cc1ccc(NC(=O)c2ccc(Cn3cc([N+](=O)[O-])cn3)cc2)c(C)c1	-4%	1.4	10	-46%[inhibitor]	?	4.5
COc1ccc(NC(=O)CCN2CCN(C/C=C/c3ccccc3)CC2)cc1	2%	nt	nt	3%	-2.3%	0.2
O=c1c2ccccc2c(-c2ccccc2)nn1-c1ccccc1	-12%	3.2	54	-13%[15.4 µM]	?	3.1
CCn1ccnc1CN(C)Cc1nc(-c2cccc(Cl)c2)no1	-14%	-0.8	16	1%[15.4 µM]	nt	-0.9
O=C(CSc1nc2c(cnn2-c2ccc(F)cc2)c(=O)[nH]1)N1CCCCCC1	-10%	0.2	-8	?	-3.0%	4.8
S=c1[nH]nc(-c2ccc(Cl)cc2Cl)n1Cc1ccccc1	5%	1.2	5	4%	-2.3%	nt
CCN(CC(=O)NCc1ccc(Cl)cc1)C(=O)CSCC(=O)Nc1ccc(OC)cc1	-9%	-1.3	7	1%	-4.6%	nt
COc1cc(SC)ccc1C(=O)Nc1ccc(Br)cn1	-4%	-0.4	-2	-26%	-7.0%	-1.2
COc1ccc(CN(C)C(=O)COC(=O)c2ccc3c(c2)OCO3)cc1OC	-1%	1.2	2	25%	-15%	-3.3
CCN(CC)C(=O)CSc1nnc(-c2ccccc2)n1N	2%	-0.9	-7	-26%	2.8%	5.5
Cc1ccc(C(=O)OC(C)C(=O)NC(C)CCc2ccccc2)o1 (stereo not drawn)	7%	-0.5	22	?	0.5%	nt
CCN1CCCC1CNC(=O)C1c2ccccc2C(=O)N(CCOC)C1c1ccc(F)cc1 (stereo not drawn)	0%	-0.7	2	-6%	-0.9%	11
Cn1c(CC(=O)Nc2ccccc2F)nnc1SCC(=O)N1CCOCC1	14%	-0.1	-18	8%	-0.7%	nt
O=C(N/N=C/c1cc(Br)ccc1OC(=O)c1ccc(Br)cc1)c1ccncc1	-11%	3.1	2	-22%	nt	nt
CC(NC(=O)c1ccc2c(c1)OCO2)c1ccccc1 (stereo not drawn)	8%	-0.1	-2	-5%	nt	-1.9
CCOC(=O)c1c(NC(=O)C(C)Oc2ccc(Cl)c(C)c2)sc2c1CCCC2 (stereo not drawn)	nt	0.9	-3	nt	-21%	nt
O=C(CSc1nnc(C2CC2)n1-c1ccccc1)NC1CCS(=O)(=O)C1 (stereo not drawn)	8%	1.6	-2	?	-2.6%	nt
Cc1cc(C)c(NC(=O)CCS(=O)(=O)c2cc3c(cc2Cl)NC(=O)CO3)c(C)c1	nt	0.8	2	nt	1.7%	nt
O=C(CCNc1cc(Cl)cc(Cl)c1)c1cccs1	-7%	1.1	2	-10%	-0.2%	-1.3
COc1ccc(CNc2ccccc2)cc1Br	-11%	0.3	-11	-2%	-0.6%	1.4
O=C(Cn1ccc(NC(=O)OCc2ccccc2)nc1=O)NCCCN1CCCC1=O	-1%	-0.4	24	nt	-3.5%	nt
CN(CC1CCCN(CCc2ccc(F)cc2)C1)C(=O)CCC(N)=O (stereo not drawn)	11%	0.9	-23	-1%	1.8%	-1.9
Cc1cn2c(=O)cc(COC(=O)c3ccc(NC(=O)c4ccc(C(C)(C)C)cc4)cc3)nc2s1	nt	3.4	-11	nt	?	nt
O=C(c1ccccc1F)N(Cc1ccc2c(c1)OCO2)Cc1cc2cc3c(cc2n2nnnc12)OCO3	-13%	-0.7	-3	?	-4.1%	3.4

Compound activity (PubChem)
